MT1-MMP reporter = inhibitors of MT1-MMP promoter transcription, cell-based, luciferase reporter, luminescence (AID 618). MT1-MMP promoter luciferase reporter cells, luminescence. calls from a first round at 10 µM; hits with a dose series show EC50 in µM. hit rate 0.62% among 87,000;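 active = over half of the reporter light lost at 10 µM or EC50 under 50 µM; inactive = the rest and hits that failed the dose series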;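 note: actives suppress MT1-MMP promoter-driven transcription so potencies describe inhibitors; HT1080 fibrosarcoma cells; overnight exposure; toxic or luciferase-blocking compounds were not removed from the actives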
Hsc70 = small molecules displacing fluorescent ligand from Hsc70 – biochemical, fluorescence polarization, primary screen (AID 568); displacement, % at 20 µM; hits with a dose series show IC50 in µM; 83,000 tested, under 10 active; Hsc70 fluorescence polarization, probe displacement; higher % means a stronger effect; strong numbers were not always called active;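 active = displacement above 50% without optical interference and an IC50 on retest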;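 note: ATPase domain with a fluorescein-tagged ATP probe; 0% = vehicle and 100% = excess ADP; read after one hour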
WNV NS2B-NS3 inh = inhibitors of West Nile virus NS2B-NS3 protease; AID 577; z-score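 (tested at a level between 10 and 100 µM)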; WNV NS2B-NS3 protease, fluorogenic substrate Ex360/Em465; active compounds read low; P06935; hit rate 0.18% among 65,000;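 active = z-score at -3 or under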;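 note: score is relative to mean and spread of the compound wells of a plate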
Target sequence (P06935 1371-1501 limits assumed): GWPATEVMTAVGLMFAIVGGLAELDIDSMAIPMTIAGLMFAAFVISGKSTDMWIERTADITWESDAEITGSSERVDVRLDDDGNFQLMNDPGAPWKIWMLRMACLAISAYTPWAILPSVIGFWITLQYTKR
Target sequence (P06935 1502-1679 limits assumed): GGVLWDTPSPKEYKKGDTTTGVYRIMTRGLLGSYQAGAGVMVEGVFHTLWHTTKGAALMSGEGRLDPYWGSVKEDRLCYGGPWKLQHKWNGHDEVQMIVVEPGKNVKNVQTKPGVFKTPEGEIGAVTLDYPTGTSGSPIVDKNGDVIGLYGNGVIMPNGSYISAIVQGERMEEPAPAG
Numbers without * were called inactive; i = inactive; x = not tested or not shown; + = active, no number.

cpd	smiles	MT1-MMP reporter	Hsc70	WNV NS2B-NS3 inh
1	COc1cc(C(c2sc3nc(C)nn3c2O)N2CC(C)CC(C)C2)cc(OC)c1OC (centres undefined)	i	2.4%	0.56
2	CCOC(=O)c1cc(-c2ccccc2)sc1N	i	6.1%	-0.61
3	Cc1ccc(-n2nnnc2SCc2nnc(-c3ccccc3Br)o2)cc1	i	-11%	-0.9
4	Cc1nnc(SCc2ccc(C(=O)O)cc2)s1	i	2.4%	x
5	Cn1ccnc1Sc1nc2c(c(=O)n(C)c(=O)n2C)n1C	i	12%	-2
6	CCC(=O)N1CCc2cc(S(=O)(=O)NC(C(=O)NC(C)c3ccccc3)C(C)C)ccc21 (centres undefined)	i	-2.2%	0.84
7	COc1ccc(S(=O)(=O)NCCSCc2ccco2)cc1	i	4.1%	-0.27
8	COC(=O)c1cc(OC)c(OC)cc1NC(=O)c1ccc(C)o1	i	2.3%	x
9	COc1cccc(CN(CC(=O)NC2CCCC2)C(=O)Cn2nnc(-c3cccs3)n2)c1	i	-5.3%	x
10	COc1ccccc1Nc1ncnc2ccccc12	i	-1.0%	-0.18
11	Cc1ccc2c(c1)c(C)c(C)n2CC(O)CN1CCCCC1C (centres undefined)	i	2.9%	-0.71
12	CCOc1cc(NC(=O)c2cnccn2)c(OCC)cc1NC(=O)c1ccc(OC)cc1	i	-4.6%	0.21
13	O=C(c1cccc(S(=O)(=O)N2CCOCC2)c1)N(CCO)Cc1ccccc1	i	1.7%	x
14	CC(=NCc1ccco1)c1c(C(F)(F)F)[nH]n(-c2nc3ccccc3s2)c1=O	i	5.0%	x
15	Cn1c(SC2C(=O)CC(C)(C)CC2=O)nnc1-c1ccco1	i	-0.4%	0.48
16	Cc1nc2cc(CO)ccc2s1	i	3.0%	0.95
17	CCOc1ccccc1NC(=O)C1CCCN(S(=O)(=O)c2cccc3nsnc23)C1 (centres undefined)	i	-4.7%	-1.4
18	Cc1cccc(-c2oc(C)c(C)[n+]2[O-])c1	i	1.1%	x
19	Cc1ccc2cccc(S(=O)(=O)Nc3c(C)n(C)n(-c4ccccc4)c3=O)c2n1	i	-3.4%	0.87
20	Cc1ccc(C)c(-c2nnc(OCC(=O)Nc3cc(C)on3)c3ccccc23)c1	i	2.7%	0.03
21	Cc1cccc(NCN2C(=O)C3C4C=CC(C4)C3C2=O)c1 (centres undefined)	i	-0.3%	x
22	CCOc1ccccc1-c1nc(-c2ccc(NC(=O)Cc3ccccc3OC)cc2)no1	i	-1.2%	0.98
23	COCCCNC(=O)CCc1nc2cccnc2n1Cc1ccc(OC)cc1	i	-9.3%	-1.6
24	CC1CC(N(C(=O)c2ccco2)c2ccccc2)c2ccccc2N1C(=O)c1ccco1 (centres undefined)	i	5.6%	x
25	CCC(=O)N1CCc2cc(Br)cc(S(=O)(=O)CCC(=O)NCC3CCCO3)c21 (centres undefined)	i	-2.3%	0.78
26	Cc1[nH]nc(N=CC2=C(O)CC(c3ccco3)CC2=O)c1-c1ccc(Cl)cc1 (centres undefined)	i	0.6%	x
27	COC(=O)c1c(-c2cccs2)csc1NC(=O)CN1CCOCC1	i	3.2%	1.6
28	Cc1ccc(N2C(N)=C(C#N)C(c3ccsc3)C3=C2CC(C)(C)CC3=O)cc1 (centres undefined)	i	5.6%	x
29	CC1Cc2ccccc2N1C(=O)CSc1nnc(-c2ccc(S(=O)(=O)N3CCCC3)cc2)o1 (centres undefined)	i	-0.7%	-0.14
30	O=S(=O)(NCc1cn2ccccc2n1)c1cc(F)ccc1F	i	-3.0%	-0.22

Whole records, looked up by structure. Screens in order: MT1-MMP reporter, Hsc70, WNV NS2B-NS3 inh
COCCCNC(=O)CCc1nc2cccnc2n1Cc1ccc(OC)cc1 is listed as i, -9.3%, -1.6
CCOc1ccccc1-c1nc(-c2ccc(NC(=O)Cc3ccccc3OC)cc2)no1 is listed as i, -1.2%, 0.98
COc1cccc(CN(CC(=O)NC2CCCC2)C(=O)Cn2nnc(-c3cccs3)n2)c1 is listed as i, -5.3%, x

The listing continues:
cpd	smiles	MT1-MMP reporter	Hsc70	WNV NS2B-NS3 inh
31	COc1ccc(C(=O)NCCn2ccc3ccccc32)c(OC)c1	i	-1.7%	-0.5
32	CCCC1Cc2c(sc3ncnc(N)c23)CO1 (centres undefined)	i	1.8%	0.47
33	C=CCn1c(SCC(=O)Nc2cc(C)ccc2C)nnc1-c1cnccn1	i	-0.7%	-1.5
34	Cc1nc(C)c(-c2csc(NCc3ccccc3)n2)s1	i	-2.4%	-1.2
35	COc1ccc(C2C(C(=O)NCc3ccco3)CCC(=O)N2c2ccc(OC)cc2)cc1 (centres undefined)	i	4.7%	-1
36	COc1ccc(O)c(C=Nc2cc(C)on2)c1	i	9.1%	0.38
37	CCOC(=O)c1ccc(NS(=O)(=O)c2cc(-c3nnnn3CC)ccc2OC)cc1	i	-2.2%	0.47
38	CN1CCN(CCCCC(=O)c2ccccc2)CC1	i	-3.0%	-0.1
39	O=C(Nc1nnc(CCc2ccccc2)s1)c1ccco1	i	-2.9%	-0.65
40	Cc1cc(OCC(=O)N2CCOCC2)ccc1NC(=O)C1CCCCC1	i	2.0%	0.75
41	CCc1c(C)nc2cc(-c3ccc(OC)cc3)[nH]n2c1=O	i	-6.0%	-0.8
42	COC(=O)c1ccccc1NC(=O)NC1CCN(Cc2ccccc2)CC1	i	-0.9%	0.39
43	CC(C)(C)C(=O)/C(=C\c1ccc([N+](=O)[O-])cc1)n1cncn1	+	-1.1%	x
44	Cc1c(NC(=O)CSc2nc3ccc(Cl)cc3[nH]2)c(=O)n(-c2ccccc2)n1C	i	-5.2%	x
45	COc1ccc(N(CC(O)CN2C(=O)NC(C)(C)C2=O)S(=O)(=O)c2ccccc2)cc1 (centres undefined)	i	0.3%	x
46	CC(C)c1ccc(NC(=O)C(c2ccccc2)N2CCC3(CC2)OCCO3)cc1 (centres undefined)	i	6.8%	x
47	COc1ccc(NC(=O)c2ccccc2NC(=O)COc2ccccc2)cc1	i	-0.9%	x
48	Cc1cccc(N(Cc2nnc3n2CCCCC3)C(=O)Nc2ccccc2)c1	i	0.1%	-0.1
49	O=C(NCC(c1cccs1)N1CCOCC1)c1ccco1 (centres undefined)	i	-4.1%	x
50	O=C(Cn1nnc2ccccc2c1=O)NC1CCCc2ccccc21 (centres undefined)	i	0.2%	0.8
51	C=CCN(c1ccccc1)S(=O)(=O)c1cccc(C(=O)O)c1	i	-0.7%	x
52	CN(c1ccc(C(=O)NCc2ccncc2)cc1)S(C)(=O)=O	i	-1.0%	0.77
53	Cn1cccc1C(=O)NS(=O)(=O)c1ccccc1Cl	i	-1.5%	-0.49
54	COCC(C)n1c(C)cc(C(=O)CSc2nnc(Nc3ccccc3F)s2)c1C (centres undefined)	i	2.7%	x
55	Cc1ccc(CN(C(=O)c2sc3ccccc3c2Cl)C2CCS(=O)(=O)C2)cc1 (centres undefined)	i	-2.2%	x
56	O=C(OCC(=O)N1CCCC1)c1ccccc1OCc1ccccc1	i	3.7%	-0.98
57	COc1ccc(C(=O)COC(=O)CNC(=O)C2CCCCC2)c(OC)c1	i	0.5%	x
58	CCOc1ccc(C2=CS/C(=C(\C#N)c3nnc4n3CCCCC4)N2CC)cc1	i	1.8%	x
59	Cc1cccc(N2C(=O)C(Cl)=C(Nc3c(C)n(C)n(-c4ccccc4)c3=O)C2=O)c1C	i	-6.9%	x
60	N#C/C(=C\C1CC=CCC1)c1nc2ccccc2[nH]1 (centres undefined)	i	2.1%	0.48

Random excerpt: seven entries already listed.
cpd	smiles	MT1-MMP reporter	Hsc70	WNV NS2B-NS3 inh
42	COC(=O)c1ccccc1NC(=O)NC1CCN(Cc2ccccc2)CC1	i	-0.9%	0.39
50	O=C(Cn1nnc2ccccc2c1=O)NC1CCCc2ccccc21 (centres undefined)	i	0.2%	0.8
45	COc1ccc(N(CC(O)CN2C(=O)NC(C)(C)C2=O)S(=O)(=O)c2ccccc2)cc1 (centres undefined)	i	0.3%	x
47	COc1ccc(NC(=O)c2ccccc2NC(=O)COc2ccccc2)cc1	i	-0.9%	x
38	CN1CCN(CCCCC(=O)c2ccccc2)CC1	i	-3.0%	-0.1
59	Cc1cccc(N2C(=O)C(Cl)=C(Nc3c(C)n(C)n(-c4ccccc4)c3=O)C2=O)c1C	i	-6.9%	x
60	N#C/C(=C\C1CC=CCC1)c1nc2ccccc2[nH]1 (centres undefined)	i	2.1%	0.48

(next part)
cpd	smiles	MT1-MMP reporter	Hsc70	WNV NS2B-NS3 inh
61	CC1(C)CC(=O)C2=C(C1)NC(SCC(=O)Nc1ccccc1)=C(C#N)C2c1ccco1 (centres undefined)	i	-1.0%	-0.35
62	Cc1oc(CC(C)C)cc1C(=O)Nc1cccc2ccccc12	i	-1.1%	x
63	CCC(=O)N1CCN(CCN=CC2=C(O)CC(C)(C)CC2=O)CC1	i	-4.1%	0.27
64	Cc1cccc(NC(=O)CSc2nnc(-c3ccco3)o2)c1	i	-3.7%	x
65	CCOC(=O)c1cc(C)n(-c2c(C)n(C)n(-c3ccccc3)c2=O)c1C	i	1.9%	-0.47
66	Cc1ccc(C(=O)Nc2cccc(C(=O)O)c2)cc1S(=O)(=O)N1CCOCC1	i	1.3%	x
67	Brc1ccc(-c2nnc(-c3ccccc3Br)o2)cc1	i	6.6%	-0.96
68	CCOC(=O)CCNC(=O)Nc1ccc2nc(C)n(Cc3cccc(Cl)c3)c(=O)c2c1	i	1.2%	-0.55
69	CC1CCc2c(nc3ncnn3c2N2CCN(c3ccccc3)CC2)C1 (centres undefined)	i	4.9%	-1.1
70	Cc1cccc(-n2cnc3cc(C(=O)N4CCCCC4)ccc32)c1	i	2.6%	0.41
71	CC(C)CN1C(=O)C(=O)N(CC(=O)NCc2ccc3c(c2)OCO3)C1=O	i	-0.5%	x
72	CC(=O)C1=C(C)N=c2s/c(=C/c3ccc4c(c3)OCO4)c(=O)n2C1c1ccc(N(C)C)cc1 (centres undefined)	i	-74%	-0.12
73	CC1CC(C)CN(C(=O)c2ccccc2Nc2ccc(SC(F)F)cc2)C1 (centres undefined)	i	2.5%	x
74	Cc1ccc(C2CC(c3ccccc3)n3ncnc3N2)cc1 (centres undefined)	i	0.1%	-0.74
75	CC(OC(=O)c1cc(=O)[nH]c2ccccc12)c1ccccc1 (centres undefined)	i	-0.1%	0.33
76	CC(C)CNC(=O)COc1ncnc2ccccc12	i	-0.3%	x
77	Cc1ccc2c(c1)c1c(n2CC(O)Cn2ccnc2C)C(=O)CCC1 (centres undefined)	i	4.4%	x
78	O=C(CSc1nnc(-c2ccc(F)cc2)o1)Nc1ccccc1N1CCOCC1	i	2.0%	x
79	CCOC(=O)Cc1csc(NC(=O)c2c(O)c3ccccc3n(C)c2=O)n1	i	-6.2%	-0.2
80	c1cncc(Nc2nc(-c3cccnc3)cs2)c1	i	5.0%	-0.03
81	O=S(=O)(c1ccc(NCC2CCCCC2)nc1)N1CCOCC1	i	-7.3%	-0.8
82	O=C(CSc1ncnc2c1oc1ccccc12)Nc1ccccc1C(F)(F)F	i	-1.8%	0.13
83	Cc1ccc2cc(CN(CCO)Cc3nnnn3Cc3ccc(F)cc3)c(=O)[nH]c2c1	i	2.9%	0.21
84	O=C(Cn1c(=O)n(CC2CCCO2)c(=O)c2ccccc21)c1ccc(Cl)c(Cl)c1 (centres undefined)	i	-1.2%	x
85	CN(C)c1nc(NS(=O)(=O)c2ccc(Cl)cc2)nc(N(C)C)n1	i	-1.1%	1
86	COc1cccc(/C=N/n2c(-c3ccco3)nc3ccccc3c2=O)c1	i	2.6%	-0.79
87	CN(CC(=O)Nc1cccnc1)S(=O)(=O)c1cc(Cl)ccc1Cl	i	8.9%	0.86
88	CCCC1(c2ccccc2)NC(=O)N(CC(=O)Nc2sc(-c3ccccc3)cc2C(=O)OCC)C1=O (centres undefined)	i	1.5%	x
89	CC(=O)N(Cc1cccnc1)Cc1cc2ccc(C)cc2[nH]c1=O	i	3.1%	1.2
90	COc1ccc(Cc2nc(-c3cccc(C)c3)no2)cc1	i	-3.4%	x

Remaining list, next part.
cpd	smiles	MT1-MMP reporter	Hsc70	WNV NS2B-NS3 inh
91	COc1cccc(CN(Cc2ccco2)S(=O)(=O)c2ccc(S(=O)(=O)NCc3ccccc3)cc2)c1OC	i	-0.6%	x
92	COc1ccc(NC(=O)Nc2nnc(N3CCC(C)CC3)s2)cc1OC	i	0.7%	0.12
93	Cc1cc(NC(=O)c2cccs2)n(-c2ccccc2)n1	i	-2.2%	x
94	COc1ccccc1-c1nnc(SCC(=O)N2CC(C)CC(C)C2)o1 (centres undefined)	i	0.8%	0.13
95	COc1ccc(C(=O)CN2C(=O)C(C)(C)Oc3ccc(C(=O)N4CCCCCC4)cc32)cc1	i	-4.2%	2.6
96	O=C(c1ccccc1Oc1ccccc1)N1CCN(c2ccccc2)CC1	i	-0.7%	-0.31
97	CCOC(=O)c1cc(NC(=O)c2cnccn2)cc(C(=O)OCC)c1	i	-7.0%	0.23
98	O=C1CC(N2CCN(C/C=C/c3ccccc3)CC2)C(=O)N1Cc1cccs1 (centres undefined)	i	-3.7%	1.6
99	CCN(C(=O)c1cc(Cl)ccc1OC)c1ccccc1	i	-2.9%	-0.54
100	CCOc1ccc(N(CC(=O)Nc2cccc(OC)c2)S(=O)(=O)c2c(C)noc2C)cc1	i	6.3%	-0.02
